MT1-MMP act inh: blocks activation of human MT1-MMP; HT1080 RFP-PRO-GFP cells, GFP/RFP ratio fluorescence, overnight; percent of plate control window, DMSO zero; GFP/RFP ratio change, % at 20 µM; actives 0.061% (n = 360,000); P50281;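 active means GFP/RFP ratio change of at least 30% with cell ATP level not reduced by more than half and red fluorescence within 50% of control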; further: strong numbers were not always called active
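Compound: 20 µM single dose, 1% DMSO / System: HT1080 RFP-PRO-GFP cells / Controls: DMSO and RFP-L50D-GFP cell wells / Read-out basis: GFP/RFP fluorescence ratio / Schedule: overnight compound exposure at 37 °C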
PABP polyA inh: PABP-poly(A) binding inhibition | inhibition, % at 35 µM | actives 1% (n = 290,000) | PABP-poly(A) RNA binding, fluorescence polarization;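 active means 50% or more with normal probe brightness, or confirmed in later tests; inconclusive means above 50% with abnormal brightness, or retests that disagree; inactive means below 50% or failed in later tests; about a fifth of its hits are not listed in these tables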;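 further: calls also rest on retests at 20 µM and on dose response follow-up; controls were probe without protein and protein plus probe with vehicle; some compounds called inactive have numbers as strong as hits; many hits fall short of the cut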
Rce1 inhib: yeast Ras-converting enzyme inhibition; Q03530; actives 0.27% (n = 290,000); yeast membranes, quenched prenylated peptide cleavage fluorescence; AID 2563; calls only;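 active means fall in fluorescence gain of 50% or more versus controls, with final raw signal at or below 3038400; inconclusive means same 50% fall but final raw signal above 3038400; inactive means fall in fluorescence gain under 50%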;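 further: plate controls were neutral control wells for no effect and wells lacking membranes for full effect; tested at 10 µM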
Target sequence (Q03530 whole entry, looked up): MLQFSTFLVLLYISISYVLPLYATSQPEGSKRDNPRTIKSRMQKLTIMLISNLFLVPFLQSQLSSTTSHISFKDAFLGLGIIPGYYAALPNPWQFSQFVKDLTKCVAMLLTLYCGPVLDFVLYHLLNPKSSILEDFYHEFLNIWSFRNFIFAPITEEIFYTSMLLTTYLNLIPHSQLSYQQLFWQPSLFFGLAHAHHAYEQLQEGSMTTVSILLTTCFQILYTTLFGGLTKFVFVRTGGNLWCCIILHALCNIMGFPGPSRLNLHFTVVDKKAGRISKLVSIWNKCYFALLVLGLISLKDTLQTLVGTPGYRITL
eIF4H inh: inhibitors of RNA binding by human eIF4H. actives 0.94% (n = 290,000). eIF4H fluorescence polarization binding assay. inhibition, % at 35 µM. Q15056;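 active means 50% or more with normal probe brightness, or confirmed in later tests; inconclusive means above 50% with abnormal brightness, or retests that disagree; inactive means below 50% or failed in later tests; about a fifth of its hits are not listed in these tables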;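 further: calls also rest on retests at 20 µM and on dose response follow-up; 0% = protein and probe with vehicle and 100% = probe without protein; strong numbers were not always called active; many hits fall short of the cut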
CSC inhib: cancer stem cell inhibition; cancer stem cell-like cells viability, luminescence; inhibition, % at 7.5 µM; actives 1.1% (n = 300,000);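 active means mean at 75% or more and at least half the replicates too; inconclusive means mean and replicates disagree; tested in HMLE shEcad cells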;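 further: 0% = median of negative and 100% = median of positive control wells; the first replicate is given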
UUG fidelity: alters start codon recognition fidelity in yeast; S. cerevisiae UUG-firefly luciferase reporter, luminescence/redox ratio; activity score, % at 18.7 µM; actives 0.13% (n = 350,000);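 active means replicate mean at a twofold rise or more, about +100% in these data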;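 further: firefly luciferase made from a UUG start codon reports start codon fidelity; reporter light over untreated wells divided by growth signal over untreated wells; some hits fall short of that in this replicate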
Env fusion inh: blocks HIV Env-driven cell-cell fusion; HeLa-JRFL Env/CEM21 cell fusion, luciferase; inhibition, % at 12.3 µM; actives 1.1% (n = 360,000); AID 651610;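 active means mean replicate inhibition score of at least 50 and every replicate individually at or above 50; inconclusive means only one of the two criteria met; inactive means mean below 50 and not all replicates reaching 50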;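 further: 0% = plate neutral controls and 100% = maraviroc near 300 nM; one replicate is shown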
eIF4H inh retest: second read-out of eIF4H inh, no call of its own (marks repeat the call); inhibition, %; compound at 20 µM; confirmation average;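 mean of two retest wells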
PABP polyA inh retest: recorded beside PABP polyA inh, whose call it bears; inhibition, %; compound at 20 µM; confirmation repeats;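 mean of two retest wells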
MT1-MMP act inh RFP: second read-out of MT1-MMP act inh, no call of its own (marks repeat the call); RFP signal change, %; measured here: RFP expression control read;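 0 = vehicle wells; hits needed this value within 50% of zero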
An asterisk follows results filed as active; i = inactive; ? = inconclusive; / = not tested or not shown; & = joins results of further samples. Not all compounds are listed; count on the stated rates, not on these rows.

SMILES	MT1-MMP act inh	MT1-MMP act inh RFP	PABP polyA inh	Rce1 inhib	eIF4H inh	CSC inhib	UUG fidelity	Env fusion inh	others
Brc1cc2c(cc1-c1nc3ccccc3s1)OCO2	2	0	3	i	1	16	-13	-26
COc1ccc(CCN=C(N)NS(=O)(=O)c2ccc(F)cc2)cc1	7	-8	14	i	0	-3	/	31
Cc1ccc(CN2CC(N3CC=CC3)CS2(=O)=O)cc1 (centres undefined)	1	3	/	/	/	/	-4	24
O=C(COC(=O)c1c(Cl)ccc(Cl)c1Cl)NC(=O)NCc1ccccc1	-4	-2	12	i	-18	/	2	-20
O=C(NC1CCN(S(=O)(=O)c2cccc(Cl)c2)CC1)C1CCCCC1	3	2	-6	i	38	-5	-12	5
CSCCC(NC(=O)c1ccc(Cl)cc1)C(=O)OCC(=O)c1ccc[nH]1 (centres undefined)	-4	5	-5	i	2	2	/	-18
CCCOc1ccc(C2C(C(=O)c3ccco3)=C(O)C(=O)N2CCN2CCOCC2)cc1OC (centres undefined)	/	/	2	i	0	-1	/	/
CCC(=O)Nc1nnc(S(=O)(=O)N(CC)c2cc(C)cc(C)c2)s1	1	0	3	i	3	5	-18	-4
Cc1ccc2oc(C(=O)N3CCN(CC(=O)NC(C)C)CC3)c(C)c2c1	-1	3	-6	i	-5	-1	-1	-2
Cc1ccc2c(c1)N(CCCC(=O)NCCCN1CCCC1=O)C(=O)CO2	2	8	4	i	-1	-1	-18	4
CC(C)c1nc2sc3c(=O)[nH]cnc3c2c2c1CCCC2	2	-3	4	i	7	17	/	-3
Cc1ccc2c(c1)NC(=O)C(CC(=O)NC1CCCCC1C)O2 (centres undefined)	3	4	4	i	0	/	7	1
CCc1ccc(C(=O)COC(=O)c2ccc(-c3nnc(-c4ccccc4)o3)cc2)cc1	-2	2	-4	i	-4	6	-6	-134
Cc1ccsc1C1C(C#N)=C(N)N(N(C)C)C2=C1C(=O)CCC2 (centres undefined)	-4	-1	4	i	0	-14	-15	6
Cc1nc2ccccc2n1CC(O)COCC1CC=CCC1 (centres undefined)	-2	-27	-2	i	0	-3	-19	/
Cc1ccc(S(=O)(=O)N2[C@@H](c3cccc(Cl)c3)C(C(=O)O)=CC[C@H]2c2ccc(Cl)c(Cl)c2)cc1	4	1	/	/	/	-3	-15	5
COCCn1c(SCc2nc3sc(C(=O)OC)c(C)c3c(=O)[nH]2)nc2ccccc21	-23	1	24	i	53	/	-12	-152	eIF4H inh retest=-4;PABP polyA inh retest=26
CCOc1ccc(OCC(=O)OC(C)C(=O)Nc2ccc(Cl)cn2)cc1 (centres undefined)	1	1	/	i	/	-12	/	/
Cc1ccc(N2CN=c3s/c(=C\c4cccnc4)c(=O)n3C2)cc1	-19	-14	-3	i	10	-9	-5	?
C/C=C/n1ccnc1CC(O)(c1ccccc1)c1ccc(C)cc1 (centres undefined)	2	2	/	i	/	-7	/	16

Ordered by formula weight (highest first): 13 of the compounds above.
SMILES	MT1-MMP act inh	MT1-MMP act inh RFP	PABP polyA inh	Rce1 inhib	eIF4H inh	CSC inhib	UUG fidelity	Env fusion inh	others
Cc1ccc(S(=O)(=O)N2[C@@H](c3cccc(Cl)c3)C(C(=O)O)=CC[C@H]2c2ccc(Cl)c(Cl)c2)cc1	4	1	/	/	/	-3	-15	5
COCCn1c(SCc2nc3sc(C(=O)OC)c(C)c3c(=O)[nH]2)nc2ccccc21	-23	1	24	i	53	/	-12	-152	eIF4H inh retest=-4;PABP polyA inh retest=26
CCc1ccc(C(=O)COC(=O)c2ccc(-c3nnc(-c4ccccc4)o3)cc2)cc1	-2	2	-4	i	-4	6	-6	-134
CSCCC(NC(=O)c1ccc(Cl)cc1)C(=O)OCC(=O)c1ccc[nH]1 (centres undefined)	-4	5	-5	i	2	2	/	-18
O=C(NC1CCN(S(=O)(=O)c2cccc(Cl)c2)CC1)C1CCCCC1	3	2	-6	i	38	-5	-12	5
CCOc1ccc(OCC(=O)OC(C)C(=O)Nc2ccc(Cl)cn2)cc1 (centres undefined)	1	1	/	i	/	-12	/	/
Cc1ccc2c(c1)N(CCCC(=O)NCCCN1CCCC1=O)C(=O)CO2	2	8	4	i	-1	-1	-18	4
CCC(=O)Nc1nnc(S(=O)(=O)N(CC)c2cc(C)cc(C)c2)s1	1	0	3	i	3	5	-18	-4
Cc1ccc2oc(C(=O)N3CCN(CC(=O)NC(C)C)CC3)c(C)c2c1	-1	3	-6	i	-5	-1	-1	-2
C/C=C/n1ccnc1CC(O)(c1ccccc1)c1ccc(C)cc1 (centres undefined)	2	2	/	i	/	-7	/	16
Cc1ccc2c(c1)NC(=O)C(CC(=O)NC1CCCCC1C)O2 (centres undefined)	3	4	4	i	0	/	7	1
Cc1nc2ccccc2n1CC(O)COCC1CC=CCC1 (centres undefined)	-2	-27	-2	i	0	-3	-19	/
CC(C)c1nc2sc3c(=O)[nH]cnc3c2c2c1CCCC2	2	-3	4	i	7	17	/	-3

Continuation.
SMILES	MT1-MMP act inh	MT1-MMP act inh RFP	PABP polyA inh	Rce1 inhib	eIF4H inh	CSC inhib	UUG fidelity	Env fusion inh	others
COc1cccc(N2CCN(C(=O)c3c(C)nn(-c4ccccc4)c3C)CC2)c1	7	1	3	i	-4	12	14	11
COC(=O)[C@@]1(C)[C@H]2C(=O)N(C)C(=O)[C@H]2[C@H]2CN(C)C(=NC3CCCCC3)N21	1	6	/	/	/	/	8	9
CSc1ccc(/C=N/NC(=O)c2ccc(O)cc2)cc1	3	1	7	i	-4	70	/	/
C[C@@H]1CCCCO[C@@H](CN(C)Cc2ccc3c(c2)OCO3)[C@@H](C)CN([C@H](C)CO)C(=O)c2cc(NS(=O)(=O)c3ccccc3)ccc2O1	0	2	/	/	/	/	17&-5	-25
O=C1COCCOCCOCCOCC(=O)NCCN1	-4	-1	-10	i	2	8	0	0
CCn1c(=O)c(C(=O)NNC(=O)c2ccccc2Br)c(O)c2ccccc21	4	7	6	i	5	/	-5	1
COc1ccc(/C=C2/SC(=S)N(CCCC(=O)Nc3ccccc3C(=O)O)C2=O)cc1	2	1	13	i	-2	4	-51	28
Cc1[nH]c2ccccc2c1C(C[N+](=O)[O-])c1ccco1 (centres undefined)	-3	2	24	i	11	-15	/	2
Cc1ccc(Sc2ccc(S(=O)(=O)Nc3ccc(C(=O)O)cc3)cc2)cc1C	-1	-3	/	/	/	13	-13	-7
CCc1ccc2c(c1)c(N=NC1=NC(=O)CS1)c(O)n2CC	1	5	10	i	0	26	-2	/
COc1ccc(S(=O)(=O)NCC2CCCN(C(=O)CC3CCCC3)C2)cc1 (centres undefined)	-1	-5	-8	i	-7	-5	/	1
Cn1c(Cl)nc2ccccc21	2	8	2	i	-3	-11	-8	-2
CC1CCCCN1CC(=O)Nc1ccc(N2CCCCCC2)cc1 (centres undefined)	11	10	-8	i	-2	39	/	-5
N=c1n(CC(=O)O)c2ccccc2n1Cc1ccccc1Cl	0	0	-2	i	-3	5	-7	-37
O=C(O)/C=C/C(=O)Nc1c(F)cccc1F	-4	0	11	i	-3	0	-19	7
COc1ccc2c(c1)CCCC2NS(=O)(=O)OCC(Cl)(Cl)Cl (centres undefined)	6	5	-9	i	-4	11	-5	19
CCOC(=O)C1(Cc2ccccc2)CCN(Cc2ccc(C3CCCCO3)s2)CC1 (centres undefined)	-3	-7	-10	i	-1	-3	-9	11
C=CCN(c1ccccc1)S(=O)(=O)c1ccc2c(c1)oc(=O)n2C	-1	-1	0	i	7	-3	-12	/
O=C(Nc1cccc(NC(=O)c2ccco2)c1)c1cccc(Br)c1	-2	-6	14	i	-13	9	-12	23
CN(C)CCNc1ccc(-c2nn(C)c(=O)c3ccccc23)cc1[N+](=O)[O-]	/	/	-4	i	0	7	/	25
CC(=O)Nc1ccc(NC(=O)CS(=O)(=O)c2cn(CC(=O)N3CCC(C)CC3)c3ccccc23)cc1	1	6	3	i	8	-3	-1	21
CC(=O)N1N=C(c2ccc(Br)cc2)CC1c1cn(C)c2ccccc12 (centres undefined)	-4	-5	3	i	0	14	15	/
CCCC(=O)NC(c1ccc(N(C)C)cc1)c1c(O)ccc2ccccc12 (centres undefined)	-9	-4	0	i	0	-5	-1	-62
C[C@H](CO)N1C[C@H](C)[C@@H](CN(C)S(C)(=O)=O)Oc2c(NC(=O)c3ccncc3)cccc2C1=O	1	1	/	/	/	/	-13&-6	-20
CC1(c2ccccc2)NC(=O)N(CC(=O)N(c2ccccc2)C2CCS(=O)(=O)C2)C1=O (centres undefined)	1	3	/	/	/	-20	-2	-10
CC(=O)Nc1ccc(NC(=O)C(C)OC(=O)C2CC(=O)N(CCc3ccccc3)C2)cc1 (centres undefined)	-2	2	/	i	/	-4	/	-1
CCOc1ccc2c(c1)c(C(C)=O)c(C)n2-c1ccccc1	-5	-9	-4	i	-9	-11	-3	2
CC(=O)OCc1nc2sc3c(c2c(=O)[nH]1)CCCC3	-3	2	-13	i	-7	12	-20	-66
COc1ccc(OCc2cc(C(=O)N(C)Cc3nccn3C)no2)c2ccccc12	1	2	5	i	2	20	-17	32
CN(CCO)c1cc(N2CCN(C(=O)c3ccco3)CC2)c2nonc2c1[N+](=O)[O-]	6	3	-3	i	-1	0	17	-6
Cc1ccc2nc3nc(NCC4CCCO4)c(C(=O)NC4CCCCC4)cc3c(=O)n2c1 (centres undefined)	/	/	-3	i	-5	-4	/	/
O=C(C1CCCN(S(=O)(=O)c2ccccc2)C1)N1CCCCC1 (centres undefined)	-5	-4	-4	i	2	2	-18	-2
CC(C)Cn1c(=O)c(C(=O)Nc2ccncc2)c(O)c2ccccc21	-27	-30	/	i	/	135*	12	2
O=C(COc1ccccc1)Nc1ccc(N2CCN(C(=O)c3ccco3)CC2)cc1	5	1	12	i	-8	-9	/	-9
C=CCn1c(SCc2cc(=O)n3cc(C)ccc3n2)nnc1-c1cccc(C)c1	6	2	-4	i	-1	9	/	12
COc1ccc(C(=O)Nc2cccc3ccccc23)cc1	-1	2	2	i	-7	-12	-13	-5
CCc1c(C)sc(NC(=O)Cn2nc(C)c([N+](=O)[O-])c2C)c1C(N)=O	0	-5	-2	/	-3	-7	/	-14
CCSc1nc(N)c2c3c(sc2n1)CN(C)CC3	/	/	0	i	15	/	/	/
O=S(=O)(c1ccc(Cl)cc1)c1nc(-c2ccccc2F)oc1NCCCN1CCOCC1	-3	-2	-1	i	-9	-5	-18	20
O=C(O)Cn1nc(-c2ccc(Cl)cc2)ccc1=O	2	5	-8	i	3	-7	/	-11
FC(F)(F)c1ccc(C2[C@H]3CN(Cc4cccnc4)[C@H](c4ccccc4)C34CC2(c2cccnc2)C4)cc1 (some centres undefined)	-14	-16	-10	i	-5	102*	2	29
O=[N+]([O-])c1ncc(Br)cc1Nc1ccccc1	-1	-2	/	i	/	15	/	-21
CCCOC1CCCN(C(=O)c2ccc3oc(C(C)C)nc3c2)C1 (centres undefined)	-3	0	-9	/	-5	-8	-11	-19
CCOc1ccc(-c2nnn(CC(=O)NCc3ccco3)n2)cc1	4	3	5	i	-4	7	-10	-14
CCc1nnc(NC(=O)CSc2nnc(COc3cccc(C)c3)o2)s1	-2	4	6	i	-5	2	/	-27
Cc1ccc(NC(=O)Cn2nnc(C(=O)NCc3ccc(Cl)cc3)c2N)cc1F	0	1	-7	i	3	-12	-15	5
